Source: PubChem
Menin-MLL FL inh – inhibitors of human menin-MLL interaction, wild-type MLL peptide. Fluorescence polarization, fluorescein-MLL peptide displacement from menin. FP activity change, % at 61.4 µM. 290,000 tested, under 10 active; inconclusive = falling polarisation curve, or a change in total fluorescence; inactive = total fluorescence flat and polarisation flat or rising; no compound was filed as active; the % refers to the polarisation; negative = inhibition;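 further: % of control where 0% means no effect; inhibitors lower the polarisation; unlabelled MLL peptide was the positive control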
PINK1 expr mod – changes PINK1 expression; 0.2% of 410,000 active; PINK1 immunofluorescence, high-content cytometry, 24 h; Potency, µM (series often up to 76.6 µM), for the others: at the highest dose activation (PINK1 increase), hits mostly activators; active = well fitted activation curve with a large enough effect; inconclusive = small, poorly fitted or top-dose-only effect; inactive = flat fitted curve, though single readings scatter; cell line not stated here;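 further: potency means the concentration at half of the fitted maximal effect; % of control where 0% means no effect; nearly all actives have a fitted effect of over 65% in size; a mitochondrial uncoupler was the plate control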
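Readout is PINK1 immunofluorescence, quantified alongside mitochondrial, cell and nuclear markers by laser-scanning microplate cytometry. Cells from a stable line were exposed to compound titrations (5 concentrations) for 24 hours, with CCCP controls.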
ClpP mod – qHTS Assay for Activators of ClpP. 1.9% of 340,000 active. purified B. subtilis ClpP, FRET peptide cleavage, 20 min. ATP-dependent Clp protease proteolytic subunit (Bacillus subtilis (strain 168)), P80244. Potency, µM (highest dose often 57.5 µM), inactives show at the top dose activity change, negative = active; active = well fitted falling curve with a large enough effect; inconclusive = small, poorly fitted or top-dose-only effect; inactive = no such curve, though single readings can be large or run the other way; further: potency means the concentration at half of the fitted maximal effect; the source files actives as falling curves though it sought activators and does not explain the sign; nearly all actives have a fitted effect of over 65% in size; many hits overshoot -100%
Target sequence (P80244 whole entry, looked up): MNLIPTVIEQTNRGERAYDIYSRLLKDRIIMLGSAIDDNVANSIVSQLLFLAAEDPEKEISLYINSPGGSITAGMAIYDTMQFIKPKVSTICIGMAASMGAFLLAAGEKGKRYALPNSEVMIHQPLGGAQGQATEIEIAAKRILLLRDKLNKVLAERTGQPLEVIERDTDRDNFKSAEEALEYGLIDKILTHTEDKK
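FRET quenching reversal measured ClpP activation: 10 microg/mL B. subtilis ClpP at pH 8 with the FRET-FV decapeptide, read at 430 nm after 320 nm excitation. The 20-min minus 0-min signal was scaled between DMSO/no-enzyme wells and ADEP (5.8 microM final).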
D2 agonist – activates the human D2 dopamine receptor; activation, % (no concentration beside the values); DiscoveRx PathHunter D2 beta-arrestin, luminescence, 90 min; 100% = 57 uM dopamine signal; 0.084% of 360,000 active; P14416; AID 624465; in the data active = activation above about 40%; inconclusive = about 15% to 40%; inactive = below about 15%; further: compound concentration not given in the record; the text of the record calls up to 30% inactive
Target sequence (P14416 whole entry, looked up): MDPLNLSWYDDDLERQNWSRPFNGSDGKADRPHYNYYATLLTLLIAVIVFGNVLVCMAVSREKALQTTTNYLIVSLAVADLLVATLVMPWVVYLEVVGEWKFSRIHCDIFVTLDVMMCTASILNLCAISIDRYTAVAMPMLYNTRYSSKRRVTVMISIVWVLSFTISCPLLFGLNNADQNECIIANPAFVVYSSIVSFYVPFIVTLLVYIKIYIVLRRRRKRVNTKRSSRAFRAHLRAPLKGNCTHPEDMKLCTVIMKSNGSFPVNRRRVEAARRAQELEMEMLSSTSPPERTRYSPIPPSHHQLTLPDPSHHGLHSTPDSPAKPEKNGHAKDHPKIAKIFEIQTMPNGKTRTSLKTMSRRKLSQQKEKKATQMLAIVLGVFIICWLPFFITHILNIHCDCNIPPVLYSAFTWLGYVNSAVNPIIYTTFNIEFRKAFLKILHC
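DiscoveRx PathHunter D2 beta-arrestin cells (2,100/well) attached overnight, then compound-stimulated 90 min at 37 C in HBSS/10 mM HEPES/0.1% Tween-20 buffer; beta-galactosidase complementation read by luminescence after 1 h at ambient temperature. Dopamine 57 uM final (EC100) as control.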
gsp antag – gsp mutant antagonism; Potency, µM (titrated, usually from 76.9 µM), without a hit: at the top dose activity change, negative = inhibition, actives largely listed as inhibitors; 0.4% of 340,000 active; AID 624288; gsp-mutant cells, cAMP HTRF, 30 min; control for the full effect not named in the record; active = falling curve of any shape with a large fitted effect; inconclusive = falling curve, mostly with a smaller effect; inactive = flat or rising curve; cell line not stated here;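 further: intracellular cAMP measured with PDE inhibitor Ro 20-1724 present during compound exposure; potency means the concentration at half of the fitted maximal effect; on the % scale 0 is the no-effect control and ±100 the full control effect; nearly all actives have a fitted effect of over 65% in size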
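Cells in G418 medium, seeded 16-24 h, 37C; buffer exchange to DPBS + 1 mM CaCl2, 0.5 mM MgCl2, 0.05% BSA; cpds in DMSO + […] (300 uM stock), 30 min 37C; HTRF cAMP detection.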
Sfp inh – inhibitors of Bacillus subtilis Sfp phosphopantetheinyl transferase; Q9F4F7; Biochemical Sfp PPTase activity, qHTS; Potency, µM, without a hit: max response, negative = inhibition, usual class: inhibitors; 3.5% of 310,000 active; AID 1490; active means well fitted inhibition curve with a large enough effect; inconclusive means small, poorly fitted or top-dose-only effect, or another doubt; inactive means no such curve, though single readings can be large or run the other way;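 further: the enzyme is Sfp with the accession as filed and its product quenches rhodamine fluorescence; potency means the concentration at half of the fitted maximal effect; 0% = enzyme reaction without inhibitor and -100% = no enzyme wells; top concentration of the series not given in the record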
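With Hepes-Na pH 7.6 buffer containing 10 mM MgCl2, Sfp (15 nM) modified BHQ-2-YbbR (12.5 uM) using rhodamine-CoA (5 uM). Two reads 30 minutes apart at 525/598 nm yielded each well's rate.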
gsp agonist – gsp mutant agonism; AID 624287; Potency, µM (series often up to 76.9 µM), inactives show top-dose activation (cAMP increase), actives largely listed as activators; 0.13% of 340,000 active; gsp mutant cells, cAMP HTRF, 30 min; control for the full effect not named in the record; active = well fitted activation curve with a large enough effect; inconclusive = small, poorly fitted or top-dose-only effect, or another doubt; inactive = no such curve, though single readings can be large or run the other way; cell line not stated here;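 further: phosphodiesterase inhibitor Ro 20-1724 added with compounds to block cAMP breakdown; potency means the concentration at half of the fitted maximal effect; nearly all actives have a fitted effect of over 60% in size; about a fifth of the inactives were tested at one dose only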
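Cells stably selected in G418 were plated at 2000/well, grown 16-24 hr, then given compounds in DMSO with the PDE inhibitor […] (300 uM solution added) for 30 min at 37C; cAMP was read by HTRF.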
* = called active by the depositor; ? = inconclusive; . = no result given; & = joins results of further samples; [ ] = remark or other dose.

canonical_smiles	Sfp inh	Menin-MLL FL inh	D2 agonist	gsp antag	ClpP mod	gsp agonist	PINK1 expr mod
Cc1csc2ncc(C(=O)N3CCc4ccccc43)c(=O)n12	.	.	0.0	-5%	-20%	19%	0.7%
CCOC(=O)C1CCN(c2c(NCCC(C)C)c(=O)c2=O)CC1	1%	1.8	-7.2	-2%	-0.1%	14%	2.3%
Cn1c(=O)cc(SCC(=O)NCC2CCCO2)c2ccccc21 (stereo unspecified)	1%	-2.3	-2.1	5%	?	?	0.5%
CCCC(=O)OCC(=O)Nc1ccc(N=Nc2ccccc2)cc1	-1%	5.1	4.1	0%	0.6%	4%[15.4 µM]	7.1%
COc1ccc(CC(=O)NCC2CCCN(Cc3ccccc3Cl)C2)cc1 (stereo unspecified)	19%	1.1	3.7	2%	2.3%	-4%	0.3%
CC(=O)c1c(C)[nH]c(C(=O)Nc2ccc(Cl)c(S(=O)(=O)N3CCOCC3)c2)c1C	-3%	13	2.4	12%	-4.0%	?	10%
O=S(=O)(c1ccccc1)N1CCCCC1CCc1ccccc1 (stereo unspecified)	.	.	2.2	?	0.9%	2%[15.4 µM]	2.7%
O=C(NCc1cccnc1)Nc1cccc([N+](=O)[O-])c1	12%	.	-0.4	15%	-1.2%	16%	-0.9%
CN(CC(=O)Nc1cccc(F)c1)C(=O)CCCc1c[nH]c2ccccc12	.	.	1.5	-8%	-0.9%	-12%	1.8%
O=C(COC(=O)Cc1ccc(F)cc1)Nc1ccc(Cl)cn1	.	.	9.5	0%	-0.6%	2%	1.3%
O=C(N/N=C/c1ccccc1F)c1cc2c(ccc3ccccc32)o1	5%	.	10	8%	3.4%	?	12%
O=C(CO/N=C/c1ccccc1)N1c2ccccc2Oc2ccccc21	-4%	1.2	7.9	-11%	-2.5%	0%	0.3%
COc1ccc(CCNC(=O)Cn2c(=O)n(-c3ccc(F)cc3)c(=O)c3sccc32)cc1OC	-4%	-7.0	3.3	?	-0.5%	-24%	0.2%
O=C(N[C@@H](Cc1ccccc1)C(=O)N[C@@H](Cc1ccccc1)C(=O)O)OCc1ccccc1	.	.	-0.9	6%	-3.3%	-36%[inhibitor]	-1.1%
CCN(Cc1nc2cc(Cl)ccc2c(=O)[nH]1)C(=O)c1cccc(NC(=O)c2cccs2)c1	.	.	0.1	?	1.8%	14%	2.5%
O=C(NNC(=O)c1ccccc1F)c1ccc(S(=O)(=O)N2CCCCC2)cc1	.	.	-6.3	4%	.	29%	0.7%
Cc1nn(-c2ccccc2)nc1C(=O)c1c(C)[nH]n(-c2ccccc2)c1=O	5%	4.0	1.3	-6%	.	10%	3.3%
CSc1cc(-c2ccccc2)n(Cc2ccc(Cl)cc2Cl)c(=O)c1C#N	15%	2.2	-2.2	3%	-12%	16%	9.1%
CC(=O)Oc1ccccc1C(=O)Nc1ccccc1C(=O)N1CCCCC1	12%	3.6	-6.0	-4%	1.0%	1%	0.6%
CC1CCCC(C)N1C(=O)CSc1nnc(NC(=O)Cc2cccs2)s1 (stereo unspecified)	6%	3.5	-2.5	?	-1.2%	-18%	4.9%
CCc1ccc(NC(=O)CSc2nc(C)cs2)cc1	.	.	-5.9	.	-2.8%	20%	0.5%
CN(C)S(=O)(=O)c1ccc(Cl)c(NC(=O)CSc2nnnn2-c2ccc(O)cc2)c1	-15%	0.7	3.6	-41%	.	19%[15.4 µM]	0.4%
CCOc1ccc(Br)cc1S(=O)(=O)Nc1cccnc1	19%	-1.7	-3.4	16%	.	-3%[15.4 µM]	7.4%
O=C(CCN1C(=O)c2ccccc2C1=O)Nn1cnnc1	12%	3.4	1.0	18%	-0.7%	25%	-0.9%[38.3 µM]
CCCNS(=O)(=O)c1ccc(CCC(=O)Nc2ccc3c(c2)OCCO3)cc1	1%	2.5	2.0	7%	-1.1%	4%	0.7%
COc1cc(OC)c(C(=O)NC2CC(C)(C)NC(C)(C)C2)cc1OC	0%	3.9	-1.3	11%	?	-2%	-1.3%
COc1cccc(COC(=O)c2ccc(S(=O)(=O)N3CCC(C)CC3)cc2)c1OC	.	.	-0.9	-15%	-0.3%	23%[15.4 µM]	0.2%
O=C(Cn1c(=O)cnc2ccccc21)N1CCN(S(=O)(=O)c2cccc([N+](=O)[O-])c2)CC1	.	.	-0.6	7%	-0.6%	-27%	-1.5%
Cc1cc(C)n2nc(SCc3nc4ccccc4[nH]3)nc2n1	1%	2.0	-0.3	1%	-1.8%	?	-0.5%
N#C/C(=C(/O)c1ccc([N+](=O)[O-])s1)c1nc2ccccc2[nH]1	0%	5.5	-0.2	13%	-0.5%	0%	20%
CCOC(=O)NNc1cc(C(F)(F)F)ccn1	-6%	-0.4	3.2	0%	.	18%	0.2%
COc1cc(/C=N/n2c(-c3cc(C)[nH]n3)n[nH]c2=S)cc(OC)c1O	28µM*	3.7	-3.0	-8%	.	5%[15.4 µM]	-1.0%
COc1cc(CO)c(Br)cc1OCC(N)=O	10%	-2.5	-3.9	13%	.	-28%[15.4 µM]	2.3%
O=C(CCc1ccccc1)Nc1cc2c3c(c1)CCC(=O)N3CCC2	.	.	-1.5	10%	1.4%	8%	4.5%
COCc1cc(C(C)=O)ccc1OC	14%	1.8	-3.1	5%	0.6%	-1%	-0.2%
CCOc1ccccc1-n1c(SCC(=O)NCc2ccco2)nnc1-c1ccncc1	?	1.7	-1.7	-7%	-2.4%	6%	-0.3%
O=C(C[n+]1ccccc1)N/N=C/c1c(F)cccc1Cl	0%	-2.3	-0.7	5%	-0.4%	-3%	1.9%
CC(=O)c1c(C)oc2ccc(N(C(=O)C3CCCCC3)S(=O)(=O)c3cc([N+](=O)[O-])ccc3C)cc12	22%	6.0	-5.5	6%	-0.6%	-4%[15.4 µM]	0.9%
CC1Oc2ccccc2N(CC(=O)c2ccccc2)C1=O (stereo unspecified)	-8%	4.4	-1.9	-1%	0.1%	28%	?
N#CC1=C(N)Oc2n[nH]c(-c3cccs3)c2C1C1CCCCC1 (stereo unspecified)	-5%	?	-1.0	?	-0.9%	16%	1.0%
COc1ccc(S(=O)(=O)N(C)CC(=O)N2CCOCC2)cc1Cl	6%	1.2	-1.7	-2%	-2.4%	-2%	-1.8%
O=C1[C@@H]2C(c3cccnc3)=NO[C@@H]2C(=O)N1c1ccc2ccccc2c1	50µM*	2.6	-2.3	2%	.	6%[15.4 µM]	0.0%
Cc1cc(C(=O)O)c(CCCN)s1	8%	0.9	-0.9	8%	1.8%	6%	-0.4%[38.3 µM]
COc1cc(C#N)ccc1OCC(=O)NCc1cccs1	15%	0.7	-1.4	8%	.	4%[15.4 µM]	0.1%
CCc1ccccc1OCC(=O)Nc1nc(-c2cccnc2)cs1	-11%	2.0	3.7	-8%	.	-2%[15.4 µM]	2.1%
Cc1cc(SCC(=O)N2CCCC2=O)nc2ccccc12	.	.	-0.4	0%	.	?	-0.1%
COc1ccc(C(=O)N2CC(c3ccc(Cl)cc3)CC2=O)cc1 (stereo unspecified)	.	.	-3.7	7%	0.3%	18%	2.0%
COc1cc(C(=O)Nc2cc(C)cc(C)c2)c(-n2cnnn2)cc1OC	-3%	-0.2	0.6	.	.	1%[15.4 µM]	-0.5%
O=C(/C=C/c1ccccc1)N1CCN(c2ccc([N+](=O)[O-])c(N3CCOCC3)c2)CC1	-14%	1.2	0.6	-25%	0.2%	1%	0.3%
COc1ccc(Nc2ncc(C(=O)N3CCN(c4ccccc4OC)CC3)c3ccccc23)cc1	-5%	1.4	-2.6	-8%	-1.7%	-87%[inhibitor]	1.1%&-1.1%

Single entries from above:
N#C/C(=C(/O)c1ccc([N+](=O)[O-])s1)c1nc2ccccc2[nH]1 – gsp agonist = 0%
COc1cc(C#N)ccc1OCC(=O)NCc1cccs1 – gsp agonist = 4%[15.4 µM]

New compounds follow.
canonical_smiles	Sfp inh	Menin-MLL FL inh	D2 agonist	gsp antag	ClpP mod	gsp agonist	PINK1 expr mod
O=C1/C(=C/c2ccccc2)Oc2cc(OC(=O)N3CCOCC3)ccc21	?	.	-2.0	-26%	-13%	?	1.6%
CCCSc1nc(=O)n2cccc(C)c2n1	6%	3.5	-0.2	11%	-16%	28%	-4.9%[38.3 µM]
O=C1ON=C(c2ccc(Cl)cc2)/C1=C/c1ccc(O)cc1	22µM*	?	-1.9	?	.	-5%[15.4 µM]	-1.1%
COc1ccc(N2CCN(C(=O)c3ccc(C)c(Cl)c3)CC2)cc1	-7%	0.9	0.5	-7%	-2.3%	3%	-2.4%
COc1ccc(N(C(=O)c2ccncc2)S(=O)(=O)c2ccc(OC)c(OC)c2)cc1	9%	0.7	-1.3	?	2.5%	3%	0.8%
CC(C)(CO)CNc1ccn2nccc2n1	.	.	-5.8	.	?	.	0.1%
Cc1cc(C)n(C(=O)c2cccc([N+](=O)[O-])c2)n1	6%	5.3	-2.7	-3%	-2.0%	10%	1.3%
Clc1cccc(CSC2=NCCCN2)c1	7%	0.7	2.5	9%	-2.5%	1%[15.4 µM]	0.9%
CC(C)CC[n+]1ccn(C2=C([O-])c3ccccc3C(=O)/C2=N\S(=O)(=O)c2ccccc2)c1	-11%	2.6	5.8	1%	0.2%	-48%[inhibitor]	-5.7%[38.3 µM]
COc1ccc(CN2C(=O)C(CC(=O)NCc3cccc4ccccc34)CC(C(=O)N3CCOCC3)=C2C)cc1 (stereo unspecified)	.	.	-1.5	.	0.9%	-38%[inhibitor]	1.6%
Cc1c(C(=O)N/N=C/c2ccoc2)cccc1[N+](=O)[O-]	1%	8.2	2.5	25%	-0.1%	1%	2.3%
